Compound activity deposited in PubChem BioAssay by several laboratories.
MT1-MMP act inh: MT1-MMP (human) activation inhibition. P50281. HT1080 RFP-PRO-GFP cells, GFP/RFP ratio fluorescence, overnight; percent of plate control window, DMSO zero. GFP/RFP ratio change, % at 20 µM. hit rate 0.061% among 360,000;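 active = GFP/RFP ratio change of at least 30% with cell ATP level not reduced by more than half and red fluorescence within 50% of control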; note: strong numbers were not always called active
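Read-out: GFP/RFP fluorescence ratio; Test system: RFP-PRO-GFP reporter HT1080 cells; Compound dosing: single-point 20 µM compound, 1% DMSO; Times: overnight compound exposure at 37 °C.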
Rce1 inhib: yeast Ras-converting enzyme inhibition; hit rate 0.27% among 290,000; calls only; yeast membranes, quenched prenylated peptide cleavage fluorescence; Q03530; AID 2563;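 active = fall in fluorescence gain of 50% or more versus controls, with final raw signal at or below 3038400; inconclusive = same 50% fall but final raw signal above 3038400; inactive = fall in fluorescence gain under 50%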;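 note: plate controls were neutral control wells for no effect and wells lacking membranes for full effect; tested at 10 µM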
Target sequence (Q03530 whole entry, looked up): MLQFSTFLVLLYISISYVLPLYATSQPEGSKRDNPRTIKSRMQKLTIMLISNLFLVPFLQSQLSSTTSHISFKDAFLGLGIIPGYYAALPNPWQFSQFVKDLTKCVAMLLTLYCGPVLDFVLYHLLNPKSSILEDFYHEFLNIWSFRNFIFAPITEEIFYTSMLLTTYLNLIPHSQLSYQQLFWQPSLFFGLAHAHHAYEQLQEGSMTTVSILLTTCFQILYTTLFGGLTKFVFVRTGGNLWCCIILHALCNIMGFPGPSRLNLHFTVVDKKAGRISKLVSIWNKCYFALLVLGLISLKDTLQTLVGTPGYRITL
PABP polyA inh: blocks human PABP binding to poly(A) RNA; fluorescence polarization; P11940; hit rate 1% among 290,000; inhibition, % at 35 µM;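 active = 50% or more with normal probe brightness, or confirmed in later tests; inconclusive = above 50% with abnormal brightness, or retests that disagree; inactive = below 50% or failed in later tests; about a fifth of its hits are not listed in these tables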;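 note: calls also rest on retests at 20 µM and on dose response follow-up; controls were probe without protein and protein plus probe with vehicle; some compounds called inactive have numbers as strong as hits; many hits fall short of the cut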
Yeast UUG start: alters start codon recognition fidelity in yeast | S. cerevisiae UUG-firefly luciferase reporter, luminescence/redox ratio | activity score, % at 18.7 µM | hit rate 0.13% among 350,000;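 active = replicate mean at a twofold rise or more, about +100% in these data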;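 note: firefly luciferase made from a UUG start codon reports start codon fidelity; reporter light over untreated wells divided by growth signal over untreated wells; some hits fall short of that in this replicate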
eIF4H inh: inhibitors of RNA binding by human eIF4H; Q15056; eIF4H fluorescence polarization binding assay; inhibition, % at 35 µM; hit rate 0.94% among 290,000; AID 2012;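 active = 50% or more with normal probe brightness, or confirmed in later tests; inconclusive = above 50% with abnormal brightness, or retests that disagree; inactive = below 50% or failed in later tests; about a fifth of its hits are not listed in these tables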;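 note: calls also rest on retests at 20 µM and on dose response follow-up; 0% = protein and probe with vehicle and 100% = probe without protein; strong numbers were not always called active; many hits fall short of the cut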
HIV Env fusion: inhibitors of HIV Env-mediated cell fusion; inhibition, % at 12.3 µM; AID 651610; HeLa-JRFL Env/CEM21 cell fusion, luciferase; hit rate 1.1% among 360,000;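 active = mean replicate inhibition score of at least 50 and every replicate individually at or above 50; inconclusive = only one of the two criteria met; inactive = mean below 50 and not all replicates reaching 50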;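 note: 0% = plate neutral controls and 100% = maraviroc near 300 nM; one replicate is shown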
CSC inhib: blocks cancer stem cells; cancer stem cell-like cells viability, luminescence; inhibition, % at 7.5 µM; hit rate 1.1% among 300,000;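 active = mean at 75% or more and at least half the replicates too; inconclusive = mean and replicates disagree; tested in HMLE shEcad cells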;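 note: 0% = median of negative and 100% = median of positive control wells; the first replicate is given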
eIF4H inh retest: recorded beside eIF4H inh, whose call it bears; inhibition, %; compound at 20 µM; confirmation average;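 mean of two retest wells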
PABP polyA inh retest: second read-out of PABP polyA inh, no call of its own (marks repeat the call); inhibition, %; compound at 20 µM; confirmation repeats;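 mean of two retest wells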
MT1-MMP act inh RFP: also measured in MT1-MMP act inh; calls as there; RFP signal change, %; measured here: RFP expression control read;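 0 = vehicle wells; hits needed this value within 50% of zero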
Numbers without * were called inactive; i = inactive; ? = inconclusive; / = no result given.

SMILES	MT1-MMP act inh	MT1-MMP act inh RFP	Rce1 inhib	PABP polyA inh	Yeast UUG start	eIF4H inh	HIV Env fusion	CSC inhib	others
COc1ccc(-c2noc(C3CCCN(C(=O)c4ccccc4)C3)n2)cc1 (stereo not drawn)	-2.0	-15.5	i	-3.2	23.3	-2.9	-13.0	-13.1
Cc1ccc(N(Cc2ccc(C(=O)NCC3CCCO3)cc2)S(C)(=O)=O)cc1C (stereo not drawn)	-0.4	0.9	i	5.7	/	-5.3	-2.1	-4.2
Cc1cccc(-c2nc(NCCCN3CCOCC3)c3ccccc3n2)c1	3.2	8.2	i	-1.5	-9.1	0.1	/	-4.8
COc1ccc(S(=O)(=O)N(CC(=O)N2CCOCC2)Cc2ccccc2)cc1	-3.5	1.1	i	-0.8	34.8	-7.8	-26.9	3.1
COc1ccc(C2Nc3ccccc3C(=O)N2Cc2ccccc2)cc1CN1CCOCC1 (stereo not drawn)	-0.6	-2.6	i	4.2	/	1.2	26.2	-11.4
Cc1nc2nc(NC(=O)c3ccco3)nn2c(C)c1Cl	-0.2	4.1	i	-4.9	-13.2	4.8	-31.8	-3.3
CCC(C)(C)n1nnnc1C(c1ccc2ncccc2c1)N1CCN(c2nc3ccccc3s2)CC1 (stereo not drawn)	-1.4	-8.6	i	3.5	26.5	-2.9	27.8	22.2
Cc1cc(C)n(-c2ncnc3sc4c(c23)CCCC4)n1	-2.6	4.7	i	0.7	/	-5.8	/	-14.6
Cc1c(C(=O)OCC(=O)N2CCCC2=O)oc2ccccc12	3.0	2.3	i	/	1.2	/	-16.2	1.5
N#Cc1c(N2CCCC2)nc(N)c2c(N)nc(N3CCCC3)cc12	2.2	2.6	i	108.7	/	119.4	/	/	eIF4H inh retest=10.4;PABP polyA inh retest=-2.2
Fc1ccc(-c2nnn3c2nc(NCc2ccccc2)c2ccccc23)cc1	4.0	10.3	i	-8.0	-18.7	-8.0	-6.0	-13.6
CCN(CC)S(=O)(=O)c1ccc(N/N=C/c2cc(OC)ccc2O)nc1	-0.6	-12.6	i	8.4	/	2.2	13.6	103.8*
Cc1cc2ccccn2c1C(=O)c1ccc(Cl)cc1	-6.4	-4.4	i	-4.4	-14.0	7.9	-74.3	17.8
CCc1nnc(NC(=O)c2cccc(C(=O)Nc3nnc(CC)s3)n2)s1	-0.3	4.7	i	-5.4	-15.4	14.3	/	40.2
CC(=O)NC1C(Oc2ccc(C=O)cc2)OC(COC(C)=O)C(OC(C)=O)C1OC(C)=O (stereo not drawn)	0.1	6.1	i	-3.4	/	-0.2	20.4	/
O=C(Nc1c(C(=O)O)[nH]c2ccc(F)cc12)c1cccc(C(F)(F)F)c1	0.3	2.0	i	4.4	/	1.0	-2.0	12.3
O=C(Nc1ccc(Cl)c(C(F)(F)F)c1)C1CCCN(S(=O)(=O)c2cnc[nH]2)C1 (stereo not drawn)	3.7	-4.1	i	-3.9	-11.0	-6.4	-20.5	1.4
Cc1ccc(C(=O)Nc2ccccc2-c2ccccc2)o1	0.4	0.8	i	1.5	-8.5	-1.6	/	1.3
CC(CCc1ccccc1)NS(=O)(=O)c1ccccc1Cl (stereo not drawn)	-1.5	-0.8	i	1.0	-15.4	-9.4	-0.2	4.3
O=P(O)(CCc1ccncc1)CN1CCCCC1	1.7	1.6	i	0.9	-16.8	1.1	-14.7	-5.9
COc1ccc(-c2csc(NC(=O)C3CSC4(C)CCC(=O)N34)n2)cc1 (stereo not drawn)	1.7	1.7	/	/	-14.1	/	-5.7	-1.1
COc1ccc(N2CC(C(=O)Nc3ccccc3N3CCCC3)CC2=O)c(OC)c1 (stereo not drawn)	-2.3	-7.8	i	/	/	/	14.7	2.3
O=C(COC(=O)CNS(=O)(=O)c1ccc(Br)cc1Cl)Nc1ccc(N2CCOCC2)cc1	-2.6	-2.5	i	/	-4.6	/	7.5	-3.5
CCc1nc2ccc(C(=O)NCCCN(C)C)cn2c1N(C)CCCc1ccccc1	3.3	2.1	/	/	-5.0	/	-19.5	/
Cc1ccc(C(=O)O/N=C(\c2ccccc2)c2cccnc2)cc1	3.0	6.4	/	8.2	/	-2.7	10.1	11.8
NC(=O)c1c(NC(=O)CCCC(=O)O)sc2c1CCCCCC2	4.2	8.6	i	2.9	/	-4.7	-98.5	12.6
O=C(Nc1ccc(F)cc1F)c1csc(-c2cccs2)n1	0.2	-0.4	i	-7.9	/	-3.4	-35.4	-5.6
COc1ccc(C(=O)c2ccc(-c3ccc(OC)cc3)nc2)cc1	0.6	0.1	i	10.6	1.5	0.7	-6.3	/
COc1ccc(Cc2nnc(SCC(=O)Nc3cc(Cl)ccc3C)[nH]c2=O)cc1	3.0	-0.6	i	/	/	/	6.3	0.0
O=C(CN1CCN(c2ccccn2)CC1)Nc1ccc(OC(F)(F)F)cc1	-1.1	-6.1	i	-4.1	-9.4	-8.3	13.4	-17.8
CCN1CCN(CC(=O)c2c[nH]c3ccc(C)cc23)CC1	0.2	3.6	i	7.1	-12.6	-8.4	18.5	2.1
COCCNC(=O)C(C)OC(=O)c1nsc(Cl)c1Cl (stereo not drawn)	4.9	2.9	i	0.0	-42.1	0.2	-78.2	-15.9
Cn1c(=O)c(=O)n(C)c2cc(S(=O)(=O)Nc3ccc4c(c3)OCCO4)ccc21	1.8	2.1	i	17.0	-13.5	0.8	-22.8	-22.3
COC(=O)c1c(N)sc2c1CCN(c1ncc(C(F)(F)F)cc1Cl)C2	-9.9	7.9	i	-4.2	/	-3.9	/	-6.5
COC(=O)c1ccc(COc2ccccc2/C=N/NS(=O)(=O)c2ccc(C)cc2)cc1	2.1	-5.3	i	3.5	2.9	6.1	-190.9	/
O=C(Nc1cc(Cl)ccc1-n1cncn1)c1cncc(Br)c1	-0.7	5.3	i	/	-13.7	/	/	-16.6
CC(Oc1ccc(Cl)cc1)C(=O)/C=C/N(C)C (stereo not drawn)	-3.3	0.8	i	8.3	-18.3	10.2	-49.1	-6.5
O=C(Nc1nccs1)c1ccc(N2C(=O)[C@@H]3[C@H](C2=O)[C@H]2C=C[C@@H]3C2)cc1	-2.4	-6.1	/	11.2	-4.8	15.2	-8.2	-9.2
COC(=O)c1sccc1NC(=O)c1ccco1	0.7	-0.3	i	9.7	-10.9	8.5	-29.3	-1.8
Cc1cnc(NC(=O)c2c(-c3ccccc3)noc2C)s1	-0.8	1.1	i	2.2	-5.2	0.7	-177.2	-6.4
COc1ccc(C(C)(O)c2nc(/C=C/c3ccccc3)cs2)cc1 (stereo not drawn)	-2.2	-5.6	/	/	-17.4	/	21.9	/
OC1(c2ccc(Cl)cc2)CCN(Cc2c[nH]c3ccccc23)CC1	2.8	-1.3	i	/	4.5	/	-9.4	7.8
c1ccc(SCCc2ccncc2)cc1	-2.4	1.8	i	14.7	-4.1	23.9	/	-3.5
CC(C)c1ccc(CC(=O)N2CCC2(C)C(=O)NS(=O)(=O)c2ccc(Cl)s2)cc1 (stereo not drawn)	2.3	5.1	/	/	-3.4	/	-3.0	/
CCN(CC)C(=O)c1cccc(-c2csc(C(C)(NC(C)=O)c3ccccc3)n2)c1 (stereo not drawn)	-1.7	-3.0	/	/	-2.0	/	17.1	/
CCc1nc(SCC(=O)Nc2ccc(F)cc2F)c2c(=O)n(C)c(=O)n(C)c2n1	-2.1	-2.7	i	-4.0	-10.8	1.9	-224.6	-4.5
FC(F)(F)c1ccccc1Cc1c(-c2cccc(Cl)c2)nc2ccc(Br)cn12	-3.1	-5.0	/	/	-15.4	/	-17.6	/
O=C1CCCN1C(=O)COc1ccccc1[N+](=O)[O-]	6.4	5.0	i	/	-17.7	/	-17.4	/

An excerpt from further up:
SMILES	MT1-MMP act inh	MT1-MMP act inh RFP	Rce1 inhib	PABP polyA inh	Yeast UUG start	eIF4H inh	HIV Env fusion	CSC inhib	others
c1ccc(SCCc2ccncc2)cc1	-2.4	1.8	i	14.7	-4.1	23.9	/	-3.5
CC(C)c1ccc(CC(=O)N2CCC2(C)C(=O)NS(=O)(=O)c2ccc(Cl)s2)cc1 (stereo not drawn)	2.3	5.1	/	/	-3.4	/	-3.0	/
CCN(CC)C(=O)c1cccc(-c2csc(C(C)(NC(C)=O)c3ccccc3)n2)c1 (stereo not drawn)	-1.7	-3.0	/	/	-2.0	/	17.1	/
CCc1nc(SCC(=O)Nc2ccc(F)cc2F)c2c(=O)n(C)c(=O)n(C)c2n1	-2.1	-2.7	i	-4.0	-10.8	1.9	-224.6	-4.5
FC(F)(F)c1ccccc1Cc1c(-c2cccc(Cl)c2)nc2ccc(Br)cn12	-3.1	-5.0	/	/	-15.4	/	-17.6	/
O=C1CCCN1C(=O)COc1ccccc1[N+](=O)[O-]	6.4	5.0	i	/	-17.7	/	-17.4	/

(cont.)
SMILES	MT1-MMP act inh	MT1-MMP act inh RFP	Rce1 inhib	PABP polyA inh	Yeast UUG start	eIF4H inh	HIV Env fusion	CSC inhib	others
O=C(CCN1C(=O)C2CC=CCC2C1=O)Nc1nccs1 (stereo not drawn)	-1.5	3.2	i	-21.1	-14.9	-12.9	22.3	-1.3
Cc1sc2nc(C(C)C)oc(=O)c2c1C	-3.9	2.3	i	0.7	-3.0	-8.0	-33.5	-11.3
O=C(CSc1nc2c(c(C(F)(F)F)n1)CCc1ccccc1-2)NCc1ccccc1	-1.6	-3.7	i	6.5	-7.8	7.5	/	-22.2
O=C(NCCN1C(=O)S/C(=C\c2ccc(Cl)c(Cl)c2)C1=O)c1ccc2c(c1)C(=O)N(Cc1ccncc1)C2=O	-5.5	-19.8	i	10.9	-14.8	6.0	19.7	-5.6
CCOC(=O)C1CCN(C/C=C/c2ccccc2OC)CC1	2.7	6.6	i	11.3	-12.8	4.3	-19.4	-4.6
O=C(CSCc1cccc(Br)c1)NC1CC1	3.3	4.1	i	-3.1	/	-1.2	2.2	-25.4
Cc1cccc(-c2nc(=S)c3c(n2Cc2ccco2)CCCC3)c1	-4.5	0.6	i	-0.7	/	-5.3	-10.6	13.1
COc1ccc(S(=O)(=O)N2CCc3ccccc32)cc1NC(C)=O	-7.7	-11.9	i	-0.2	/	-6.2	4.6	-5.6
CCC(C#CCN1CCOCC1)(CC)OCCC#N	6.5	10.1	i	-3.9	-24.3	-5.7	/	2.6
Cc1csc(SCC(=O)Nc2ccc3[nH]c(=O)[nH]c3c2)n1	3.1	-0.2	/	/	-12.1	/	/	-19.0
COc1ccc(OC)c(CCNC(=O)CCn2ccc3cc(S(=O)(=O)N4CCCC4)ccc32)c1	0.2	-2.5	i	3.5	-18.1	4.3	?	-16.2
COc1ccc(N2C3=C(C(=O)CC(C)(C)C3)C(c3cnn(C)c3)C3=C2CC(C)(C)CC3=O)cc1	-3.5	-1.4	i	-0.2	-4.7	-17.8	6.5	6.9
CCCCN(C)C(=O)c1cc2cc3cc(OC)ccc3nc2o1	5.9	1.9	i	-5.2	/	-6.6	-33.1	9.4
Cc1ccc(Cl)cc1-c1cc(C(=O)NCC2CCCCC2)[nH]n1	-2.3	-4.7	/	/	-8.5	/	-1.6	/
O=C(c1ccccc1Br)N1CCc2c([nH]c3ccccc23)C1	2.4	-1.9	i	-6.9	7.7	-2.4	-4.5	-11.3
CC(C)(C)OC(=O)NCCCCCNC(=O)c1nc[nH]c1C(=O)NCC(=O)OCc1ccccc1	-5.0	2.7	/	/	-11.4	/	20.8	9.1
